Bioassay records (PubChem BioAssay)
HPGD block: qHTS Assay for Inhibitors of HPGD (15-Hydroxyprostaglandin Dehydrogenase); actives 4.3% (n = 150,000); Potency, µM, without a hit: at the highest dose activity change, negative = inhibition, most hits filed as inhibitors; purified HPGD, NADH fluorescence kinetic, PGE2 substrate; AID 894, 2007; 15-hydroxyprostaglandin dehydrogenase [NAD(+)] (Homo sapiens), P15428; active = well fitted inhibition curve with a large enough effect (not every such curve was filed as active); inconclusive = small, poorly fitted or top-dose-only effect, or another doubt; inactive = no such curve, though single readings can be large or run the other way;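 also: top concentration of the series not given in the record; plate controls included wells without enzyme; inactives centre near -10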
Target sequence (P15428 whole entry, looked up): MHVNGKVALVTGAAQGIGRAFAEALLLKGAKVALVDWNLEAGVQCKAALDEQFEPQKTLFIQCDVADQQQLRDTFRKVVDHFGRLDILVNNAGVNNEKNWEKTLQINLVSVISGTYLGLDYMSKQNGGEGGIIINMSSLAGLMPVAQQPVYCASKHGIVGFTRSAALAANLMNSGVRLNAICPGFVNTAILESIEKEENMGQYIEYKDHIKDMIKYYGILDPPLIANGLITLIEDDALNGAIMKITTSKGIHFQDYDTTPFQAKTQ
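20 nM HPGD preincubated 15 min at room temperature with compound in 50 mM Tris-HCl pH 8, 0.01% Tween 20. Started with 1 mM NAD+ and 30 uM prostaglandin E2; NADH fluorescence (360/450 nm) read 5 times over 30-s intervals, last minus first.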
The depositor's hits bear a star; & = joins results of further samples. % is scaled to controls: 0 for no effect and ±100 for the full control effect; potency is read from the fitted curve at half-maximal effect.

What do the screens show for `c1ccc2c(CN3CCOCC3)csc2c1`?
HPGD block: -10%

How did N#Cc1ccc(NC(=O)CN2C(=O)NC(Cc3ccccc3)C2=O)cc1 (stereo unspecified) do in these assays?
HPGD block: -8%

What do the screens show for `CC1(C)CC(=O)C2=C(C1)N(N1CCOCC1)C(N)=C(C#N)C2c1cccs1` (stereo unspecified)?
HPGD block: -11%

Results for O=C1C2C=CC=CC2=NC(=S)N1CCN1CCC(=C(c2ccc(F)cc2)c2ccc(F)cc2)CC1 (stereo unspecified) ?
HPGD block: -23%

How did Cc1noc(NC(=O)c2ccccc2)c1C#N do in these assays?
HPGD block: -27%

What do the screens show for `Cn1c(=O)oc2ccc(C(=O)CSc3nnnn3-c3ccccc3)cc21`?
HPGD block: -1%

What do the screens show for `CCOC(=O)C(NC(=O)c1ccccc1)(N1CCCC1=O)C(F)(F)F` (stereo unspecified)?
HPGD block: -14%

Results for O=C(Cc1cccs1)Nc1cc(SCCO)cc([N+](=O)[O-])c1 ?
HPGD block: -12%

Results for COc1ccc(C2=NOC3(CC(=O)N(c4ccc5ccccc5c4)C3=O)C2)c(OC)c1 (stereo unspecified) ?
HPGD block: -17%

How did Cc1ccc(Oc2nc3ccccn3c(=O)c2/C=C(\C#N)C(=O)Nc2c(C)n(C)n(-c3ccccc3)c2=O)cc1 do in these assays?
HPGD block: -8%

Results for O=C(Nc1ccccc1)Nc1cc([N+](=O)[O-])ccc1F ?
HPGD block: -3%

What do the screens show for `O=C(CCC(=O)N1CCN(C2CCCCC2)CC1)Nc1nnc(C(F)(F)F)s1`?
HPGD block: 0%

What do the screens show for `CCCCNC(=O)COC(=O)c1cc(F)c(F)cc1Cl`?
HPGD block: -11%

How did N#C/C(=C\Nc1ccccn1)C(=O)c1ccco1 do in these assays?
HPGD block: -21%

What do the screens show for `O=C(c1cc(S(=O)(=O)N2CCCCC2)c(Cl)cc1N1CCOCC1)N1CCOCC1`?
HPGD block: -10%

What do the screens show for `O=c1[nH]c(-c2ccccc2F)nc2c1sc(=S)n2Cc1ccccc1`?
HPGD block: 10µM*

Results for CCOc1ccc(OCC)c(NC(=O)CN(c2ccc(C)cc2)S(=O)(=O)c2c(C)noc2C)c1 ?
HPGD block: -6%

What do the screens show for `C/C=C(\C)C(=O)O[C@H]1CC(C)=C2C(=O)C=C(C)C2[C@@H]2OC(=O)[C@@](C)(OC(=O)C=C(C)C)C21` (stereo partly specified)?
HPGD block: -8%

How did CC[C@](N)(CCC(=O)O)C(=O)O do in these assays?
HPGD block: -4%

What do the screens show for `Cc1cccc(C)c1NC(=O)Cn1nnc(-c2ccc(N3CCOCC3)cc2)n1`?
HPGD block: inconclusive

How did O=C(NCc1ccccc1)c1onc(CSc2ccc(F)cc2)c1C(=O)NCCCN1CCOCC1 do in these assays?
HPGD block: -8%

Results for Cn1cccc1/C=C1\SC(=S)N(CC(=O)O)C1=O ?
HPGD block: 28µM*

How did COc1ccc(CNc2nc(-c3ccccc3)nn2C(=O)c2ccc([N+](=O)[O-])cc2)cc1 do in these assays?
HPGD block: -24%

Results for CCCc1[nH]nc2c1C(c1cccc(OC(=O)c3ccco3)c1)C(C#N)=C(N)O2 (stereo unspecified) ?
HPGD block: -29%

Results for COc1ccccc1NC(=O)c1ccc2nc(-c3ccccc3)c(-c3ccccc3)nc2c1 ?
HPGD block: -27%

What do the screens show for `CC(C)CCn1c(=O)c2ccccc2n2c(CN(C)Cc3ccccc3)nnc12`?
HPGD block: -15%

How did CC1=N/C(=C\c2ccc([N+](=O)[O-])cc2)C(=O)N1c1cc(Cl)ccc1C do in these assays?
HPGD block: -21%

What do the screens show for `O=C(c1ccccn1)c1conc1C(=O)c1ccc(Br)cc1`?
HPGD block: -22%

What do the screens show for `Cc1ccc(-c2noc(CN(C(=O)Cc3ccccc3)C(C)C)n2)cc1`?
HPGD block: -3%

How did O=C(COc1ccc(S(=O)(=O)NC2CCCC2)cc1)N1CCCCCC1 do in these assays?
HPGD block: -1%

What do the screens show for `O=C(c1ccncc1)N1CCC2(CCCN(Cc3nccs3)C2)CC1`?
HPGD block: -4%

How did CN(C)CCN(C)Cc1ccccc1Sc1cccc2ccccc12 do in these assays?
HPGD block: -14%

How did Nc1c(-c2ccccc2)cnc2ncnn12 do in these assays?
HPGD block: -17%

What do the screens show for `O=C(CN1CCCCCC1)Nc1ccc(F)c(F)c1`?
HPGD block: -24%

Results for Cc1cc(Cl)ccc1NC(=S)N1CCN(C(=O)C2CCCO2)CC1 (stereo unspecified) ?
HPGD block: -9%

How did CCN(C(=O)CSc1ccc2ccccc2c1)C1CCS(=O)(=O)C1 (stereo unspecified) do in these assays?
HPGD block: -8%

How did COc1ccc(N=Cc2ccc(CNS(=O)(=O)c3ccc(Cl)cc3)o2)cc1 do in these assays?
HPGD block: -13%

Results for CCOC(=O)c1c(C)[nH]c(C(=O)NNC(=O)c2ccc(C(C)(C)C)cc2)c1C ?
HPGD block: -11%

How did CC(C)c1cc(CN(C)C)c(O)c(C(C)(C)C)c1 do in these assays?
HPGD block: -7%

What do the screens show for `C=C(C(C)=O)C(O)c1ccc2ccccc2c1` (stereo unspecified)?
HPGD block: -1%

Results for CCC(C)c1ccc2oc(-c3ccc(NC(=O)c4ncn[nH]4)cc3)nc2c1 (stereo unspecified) ?
HPGD block: inconclusive

What do the screens show for `CCN1C(=O)c2cccc3c(NC(=O)c4ccc(S(=O)(=O)N5CCOCC5)cc4)ccc1c23`?
HPGD block: -13%

What do the screens show for `O=[N+]([O-])c1ccccc1Sc1nccn1Cc1ccccc1`?
HPGD block: -24%

What do the screens show for `CCOc1cc(-c2nc3cc(C)ccn3c2NCC2CCCO2)ccc1O` (stereo unspecified)?
HPGD block: inconclusive

Results for COc1ccc(OC)c2c(C)cc(NCCN3CCOCC3)nc12 ?
HPGD block: -24%

What do the screens show for `O=C(O)c1cc(-c2ccc3cc4c(cc3c2)OCO4)nc2ccccc12`?
HPGD block: -20%

Results for CCSc1nnc(NC(=O)c2ccccn2)s1 ?
HPGD block: -10%

Results for O=S(=O)(c1cccs1)N1CCN(CC(O)COc2cc(Cl)ccc2Cl)CC1 (stereo unspecified) ?
HPGD block: -8%

How did Cn1ncc2c(NNC(=O)Cc3ccccc3)ncnc21 do in these assays?
HPGD block: -7%

Results for CCOC(=O)CN1C(=O)N[C@@H](c2ccc(Br)cc2)C(C(=O)OC)=C1C ?
HPGD block: 1%

How did CCN(CC)S(=O)(=O)c1cccc(C(=O)/C=C2/N(C)c3ccccc3C2(C)C)c1 do in these assays?
HPGD block: -9%

How did Cc1nc2cc(C(=O)OCC(=O)NC34CC5CC(CC(C5)C3)C4)ccc2n1-c1ccccc1 do in these assays?
HPGD block: inconclusive

Results for O=C(NCC12CC3CC(CC(C3)C1)C2)c1cc2n(n1)C(C(F)(F)F)CC(c1ccco1)N2 (stereo unspecified) ?
HPGD block: -21%

What do the screens show for `CCOC(=O)N1CCN(C(=O)CSCC(=O)Nc2nc(-c3ccc(OC)cc3)cs2)CC1`?
HPGD block: -4%

Results for CCn1cc(C(=O)O)c(=O)c2cc(F)c(N/N=C/c3ccccc3[N+](=O)[O-])cc21 ?
HPGD block: -1%

Results for Cc1ncc(CN=Cc2ccc(Cl)cc2)c(N)n1 ?
HPGD block: -3%

Results for COC(=O)c1ccc(NC(=O)C2CCCO2)cc1 (stereo unspecified) ?
HPGD block: inconclusive

What do the screens show for `CCOC(=O)c1c(C)[nH]c(C(=O)COC(=O)C(C)N2C(=O)C3CCCCC3C2=O)c1C` (stereo unspecified)?
HPGD block: -3%

Results for Cc1ccsc1C(=O)N/N=C/C=C/c1ccccc1[N+](=O)[O-] ?
HPGD block: -13%

How did Cc1ccc(C)c(NC(=S)c2ccc3ccccc3n2)c1 do in these assays?
HPGD block: -4%

How did C[C@@H]1CCc2cc(F)cc3c(=O)c(C(=O)O)cn1c23 do in these assays?
HPGD block: -4%

How did Cc1nc(N)nc(Nc2ccc(Cl)cc2)c1Br do in these assays?
HPGD block: -11%

Results for O=C(O)C(Cc1ccccc1)N1C(=O)/C(=C/c2ccccc2)SC1=S (stereo unspecified) ?
HPGD block: -23%

Results for O=C1NC(c2ccccc2)=NC1(NS(=O)(=O)c1ccccc1)C(F)(F)F (stereo unspecified) ?
HPGD block: 2%

How did O=C(NCC(c1cccnc1)N1CCN(c2ccccc2F)CC1)c1ccco1 (stereo unspecified) do in these assays?
HPGD block: 3%

Results for CCOc1cc(C(=O)OCC(=O)NCc2ccco2)cc(OCC)c1OCC ?
HPGD block: -2%

How did Cc1cccc(NC(=O)/C=C/c2ccc(Cl)cc2)n1 do in these assays?
HPGD block: 0%

How did COc1ccc(CSc2nncn2C)cc1[N+](=O)[O-] do in these assays?
HPGD block: -11%

Results for COc1ccc2[nH]cc(C(=O)CN(C)CCc3ccc(OC)c(OC)c3)c2c1 ?
HPGD block: -15%

Results for CC1=CC(C)=Nc2ccc(C)cc2N1 ?
HPGD block: -10%&-2%

Results for N/C(COc1ccc(Cl)cc1Cl)=N\NS(=O)(=O)c1ccccc1 ?
HPGD block: 0%

How did CCc1ccccc1N(CC(=O)NCc1ccco1)C(=O)c1snc(C(N)=O)c1N do in these assays?
HPGD block: inconclusive

How did O=C(C1CCCN(S(=O)(=O)c2ccc(F)cc2)C1)N1CCCC1 (stereo unspecified) do in these assays?
HPGD block: 2%

How did O=C(Nc1cnn(Cc2ccc(Cl)cc2)c1)C1CCCC1 do in these assays?
HPGD block: -13%

How did Clc1ccc(-c2cn3c(n2)-c2ccccc2C3)cc1Cl do in these assays?
HPGD block: -19%

How did O=C(O)C1CC(c2cccc(Br)c2)=NO1 (stereo unspecified) do in these assays?
HPGD block: -22%

Results for O=C(c1cc(-c2cccc(O)c2)on1)N1CCN(C(c2ccccc2)c2ccccc2)CC1 ?
HPGD block: -11%

How did O=C(Cn1nc(-c2ccccc2)ccc1=O)Nc1ccc(N2CCN(C(=O)c3ccccc3)CC2)cc1 do in these assays?
HPGD block: -10%

Results for Cc1cccc(OCc2nnc(SCc3nc4ccccc4c(=O)[nH]3)o2)c1 ?
HPGD block: -10%

How did CCN1C(=O)/C(=C/N2CCc3ccccc32)SC1=S do in these assays?
HPGD block: -2%

How did Cc1cc(Cl)cc(C)c1OCCCCn1ccnc1 do in these assays?
HPGD block: -10%

How did CC1(C)CC(=O)c2cnc(NC(=O)CSc3nc4ccccc4o3)nc2C1 do in these assays?
HPGD block: -8%

Results for CCCCn1c(SCN2C(=O)c3ccccc3C2=O)nc2cc(S(N)(=O)=O)ccc21 ?
HPGD block: -14%

How did N#C/C(=C\c1ccc(Cl)cc1)c1nc(-c2ccco2)cs1 do in these assays?
HPGD block: 0%

How did CCN(CC)S(=O)(=O)c1ccc(NC(=O)C2COc3ccccc3O2)cc1 (stereo unspecified) do in these assays?
HPGD block: -22%

Results for O=C(c1cc(C(F)(F)F)cc(C(F)(F)F)c1)N1CCC2(CC1)CCN(c1ccccc1)CC2 ?
HPGD block: -5%

Results for CCOC(=O)c1sc(NC(=O)/C=C/c2ccccc2)nc1C ?
HPGD block: inconclusive

What do the screens show for `COc1cccc(-c2cc(C(F)(F)F)n3nc(N)nc3n2)c1`?
HPGD block: inconclusive

What do the screens show for `O=C(c1ccco1)N1CCN(C(=O)C(c2ccccc2)c2ccccc2)CC1`?
HPGD block: -3%

How did Cc1ccccc1-c1nnn(CC(=O)c2ccc(S(=O)(=O)N3CCCC3)cc2)n1 do in these assays?
HPGD block: -9%

What do the screens show for `Cn1ncc([N+](=O)[O-])c1C(=O)N/N=C/c1ccc(F)cc1`?
HPGD block: -12%

Results for CC1CCCN(C(=O)N2c3ccccc3Sc3ccccc32)C1 (stereo unspecified) ?
HPGD block: -1%

What do the screens show for `CCC(=O)Nc1ccc(C(=O)Nc2ccc3c(c2)C(=O)N(CC2CCCO2)C3=O)cc1` (stereo unspecified)?
HPGD block: inconclusive

How did COc1ccccc1S(=O)Cc1ccc(C(=O)NC2CCCC2)o1 (stereo unspecified) do in these assays?
HPGD block: -16%

In the list so far, these have an aryl methoxy group.
Results for COc1ccc(C2=NOC3(CC(=O)N(c4ccc5ccccc5c4)C3=O)C2)c(OC)c1 (stereo unspecified) ?
HPGD block: -17%

How did COc1ccc(CNc2nc(-c3ccccc3)nn2C(=O)c2ccc([N+](=O)[O-])cc2)cc1 do in these assays?
HPGD block: -24%

Results for COc1ccccc1NC(=O)c1ccc2nc(-c3ccccc3)c(-c3ccccc3)nc2c1 ?
HPGD block: -27%

How did COc1ccc(N=Cc2ccc(CNS(=O)(=O)c3ccc(Cl)cc3)o2)cc1 do in these assays?
HPGD block: -13%

Results for COc1ccc(OC)c2c(C)cc(NCCN3CCOCC3)nc12 ?
HPGD block: -24%

What do the screens show for `CCOC(=O)N1CCN(C(=O)CSCC(=O)Nc2nc(-c3ccc(OC)cc3)cs2)CC1`?
HPGD block: -4%

How did COc1ccc(CSc2nncn2C)cc1[N+](=O)[O-] do in these assays?
HPGD block: -11%

Results for COc1ccc2[nH]cc(C(=O)CN(C)CCc3ccc(OC)c(OC)c3)c2c1 ?
HPGD block: -15%

What do the screens show for `COc1cccc(-c2cc(C(F)(F)F)n3nc(N)nc3n2)c1`?
HPGD block: inconclusive

How did COc1ccccc1S(=O)Cc1ccc(C(=O)NC2CCCC2)o1 (stereo unspecified) do in these assays?
HPGD block: -16%

These rows are one share of the data; the hit share may differ from the screen's.
